VDR inh = blocks the human vitamin D receptor. VDR-SRC2-3 peptide fluorescence polarization, 2 h. 0.93% of 400,000 active. Potency, µM, for inactives: max response, negative = inhibition, most hits filed as inhibitors; active means well fitted inhibition curve with a large enough effect; inconclusive means small, poorly fitted or top-dose-only effect, or another doubt; inactive means no such curve, though single readings can be large or run the other way; further: series mostly up to about 120 µM
Target sequence (P11473 whole entry, looked up): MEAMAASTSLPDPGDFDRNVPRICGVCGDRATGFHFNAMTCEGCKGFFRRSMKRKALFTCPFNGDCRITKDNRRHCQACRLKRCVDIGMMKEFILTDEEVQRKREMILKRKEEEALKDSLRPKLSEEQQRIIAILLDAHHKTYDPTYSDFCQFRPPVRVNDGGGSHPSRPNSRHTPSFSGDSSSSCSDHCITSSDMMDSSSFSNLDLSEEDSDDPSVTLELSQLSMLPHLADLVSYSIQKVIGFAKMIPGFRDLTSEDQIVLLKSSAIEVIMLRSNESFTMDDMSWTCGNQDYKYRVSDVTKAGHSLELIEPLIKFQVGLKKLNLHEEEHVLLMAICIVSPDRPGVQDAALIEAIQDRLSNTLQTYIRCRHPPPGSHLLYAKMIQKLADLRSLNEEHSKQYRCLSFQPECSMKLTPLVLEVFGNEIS
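The screen uses fluorescence polarization to detect compounds that interfere with recruitment of the SRC2-3 coactivator peptide to VDR; plates are read after 2 h at room temperature.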
The depositor's hits bear a star; & = joins results of further samples. On the % scale 0 is the no-effect control and ±100 the full control effect; potency means the concentration at half of the fitted maximal effect.

`COCC(C)N=C1NN=C(c2cccs2)C(CC(=O)O)S1` (centres undefined) gave VDR inh -22.2%.
For COc1ccc(NC(=O)c2cccnc2N2CCCCC2)cc1 the results were VDR inh 21.2%.
`Cn1nnnc1SCC(=O)N1CCCCC1` gave VDR inh 0.6%.
CCc1ccc(N2C(=O)CC(N3CCN(c4ccccn4)CC3)C2=O)cc1 (centres undefined) was read as VDR inh -12.8%.
`Oc1c(C(Nc2ccccn2)c2cccnc2)cc(Cl)c2cccnc12` (centres undefined) gave VDR inh inconclusive.
Screening COc1ccc(-n2c(-c3cc(-c4ccccc4)sc3N)n[nH]c2=S)cc1 returned VDR inh -2.8%.
CC(NC(=O)C(=O)N1CCCCC1)C(c1cccs1)N1CCN(c2ccccc2)CC1 (centres undefined) was read as VDR inh 1.0%.
O=C(O)c1ccc(Cl)c(S(=O)(=O)N(Cc2ccccc2)c2ccc(F)cc2)c1 was read as VDR inh -3.2%.
For CCCCCCC(C)OC(=O)c1ccccc1C(=O)O (centres undefined) the results were VDR inh -8.3%.
COc1ccc(C(C(=O)NC2CCCC2)N(Cc2cccnc2)C(=O)c2snc(C(N)=O)c2N)cc1 (centres undefined) was read as VDR inh 22.9%.
`COc1cccc(CNS(=O)(=O)c2cc3[nH]c(=O)c(=O)[nH]c3cc2C)c1` gave VDR inh 11.7%.
`CC(=O)N1CCOc2ccc(S(=O)(=O)N3CCN(c4cccc(C(F)(F)F)c4)CC3)cc21` gave VDR inh -9.2%.
COC(=O)c1cc(C(=O)OC)n(Cc2ccc(F)cc2)c1C was read as VDR inh 14.5%.
O=C(OCc1nc2ccccc2s1)c1cccs1 was read as VDR inh -29.7%.
CCc1ccccc1NC(=O)C1CCCN1C(=O)NCc1ccccc1 (centres undefined) was read as VDR inh 0.9%.
Screening CCNC(=S)N(CCCN(CC)CC)Cc1cc2cc3c(cc2[nH]c1=O)OCO3 returned VDR inh 5.6%.
`O=C(/C=C/c1ccc2c(c1)OCO2)Nc1nncs1` gave VDR inh -2.1%.
CC1CCN(C(=O)c2cc3c(=O)n(C)c4ccccc4c3s2)CC1 was read as VDR inh 23.5%.
`CCc1nnc(NC(=O)c2ccc(N3C(=O)CCC3=O)cc2)s1` gave VDR inh -12.9%.
Screening Cc1cccc(C)c1-n1nnnc1-c1cnccc1C(F)(F)F returned VDR inh -12.2%.
Screening COc1ccc(-c2csc(-c3c(N)c(C(=O)c4ccc(OC)c(OC)c4)n4ccccc34)n2)cc1 returned VDR inh -2.8%.
`CCO[C@@H]1OC(C(N)=O)=C[C@H](c2ccc(C(F)(F)F)cc2)[C@H]1CCCO` gave VDR inh -8.6%.
`Cc1cc(C)n(-c2nc3ccccc3nc2Nc2ccc(Cl)c(C(=O)OC(C)C)c2)n1` gave VDR inh -3.6%.
`O=c1c2ccccc2c(=O)n(-c2ccccc2)n1CCCCBr` gave VDR inh 11.0%.
`CCc1nc2ccccc2n2c(-c3ccc(C)cc3)c3c(=O)n(C)c(=O)n(C)c3c12` gave VDR inh -13.0%.
COc1ccc(NC(=O)CNC(=O)c2nn(-c3ccc(OC)cc3OC)c(=O)c3ccccc23)c(OC)c1 was read as VDR inh 11.9%.
`C=CCOC(=O)NC(c1ccc(F)c(F)c1)S(=O)(=O)c1ccc(Cl)cc1` (centres undefined) gave VDR inh 9.3%.
For COc1ccc(/C=N/NC2=NS(=O)(=O)c3ccccc32)cc1OC the results were VDR inh 14.7%.
Cc1ccc(OCCCSc2nc(-c3ccc(C(C)(C)C)cc3)nc3cc(=O)[nH]n23)cc1C was read as VDR inh 6.2%.
COc1cc(/C=N/NC(=O)C(=O)NCc2cccnc2)ccc1O was read as VDR inh -4.8%.
For C[C@H](CO)N1C[C@H](C)[C@H](CN(C)C)Oc2ccc(NS(=O)(=O)c3ccc(F)cc3)cc2CC1=O the results were VDR inh -23.6%.
Screening CC(C(=O)Nc1cccc(S(=O)(=O)N2CCOCC2)c1)N1CCN(C/C=C/c2ccccc2)CC1 (centres undefined) returned VDR inh -15.9%.
For CC(C(=O)Nc1ccc(N2CCOCC2)cc1)N1C(=O)c2ccccc2C1=O (centres undefined) the results were VDR inh 14.4%.
O=C(NNC(=O)c1ccccc1[N+](=O)[O-])c1ccco1 was read as VDR inh -12.2%.
Screening O=C(CN(C(=O)CNC(=O)c1cccs1)c1ccccc1F)NC1CCCCC1 returned VDR inh 16.2%.
For CC1CC(C)CN(CC(O)COc2ccc3c(c2)CCC3)C1 (centres undefined) the results were VDR inh 1.6%.
For O=C(Cc1ccc(F)cc1)OCC(=O)c1cc2ccccc2o1 the results were VDR inh -2.9%.
Screening CC(=O)N1CCN(CC(=O)Nc2cc([N+](=O)[O-])ccc2Cl)CC1 returned VDR inh 5.5%.
For CCOc1ccc(N(CC(=O)NC(C)(C)C)C(=O)c2ccco2)cc1 the results were VDR inh -6.2%.
O=C(NCCc1ccc(Cl)cc1)C1CCCN(S(=O)(=O)c2cnc[nH]2)C1 (centres undefined) was read as VDR inh -11.6%.
Screening COc1ccccc1NC(=O)NCc1ccc(C)n1C returned VDR inh 3.1%.
Cc1c(NC(=O)c2ccco2)c(=O)n(-c2ccccc2)n1C was read as VDR inh -17.4%.
Screening CCCCn1cnc2cc(NCc3cccc(OC)c3O)ccc21 returned VDR inh -12.5%.
For N=C1C=CC=C2C1=NC1(CCCCC1)N2O the results were VDR inh -13.6%.
For O=C(N/N=C1\CC(c2ccccc2)Oc2ccccc21)c1cccnc1 (centres undefined) the results were VDR inh -10.5%.
Cc1ccc(Oc2ccc(NC(=O)C3=CC=CN4CCS(=O)(=O)N=C34)cc2)cc1 was read as VDR inh 7.6%.
`Nc1c(-c2nc(-c3ccccc3Cl)no2)nnn1-c1ccccc1F` gave VDR inh 0.5%.
Screening CN1CCN(c2oc(COc3ccc(-c4ccccc4)cc3)nc2C#N)CC1 returned VDR inh 14.9%.
`COc1ccc(Br)cc1C(=O)Nc1ccc(N2CCCC2)cc1` gave VDR inh -6.8%.
CN(C)C(=O)Nc1ccccc1 was read as VDR inh 7.3%&-20.3%.
`CN1CCN(c2ncc3nc(-c4ccc(F)cc4)c(=O)n(C4CC4)c3n2)CC1` gave VDR inh -24.4%.
`COc1cc(CCC(=O)Nc2ccc(S(=O)(=O)N3CCOCC3)cc2)cc(OC)c1OC` gave VDR inh 2.2%.
For Cc1ccc(C(=O)O[C@H](C(=O)O)[C@H](OC(=O)c2ccc(C)cc2)C(=O)O)cc1 the results were VDR inh 8.2%.
C=CCONC(=O)Cc1ccccc1 was read as VDR inh 21.8%.
COc1ccc(/C=N/NC(=O)c2ccc(NC(C)=O)cc2)cc1COc1ccc(F)cc1F was read as VDR inh 11.0%.
For NC1=NC(c2cccc(O)c2)n2c(nc3ccccc32)N1 (centres undefined) the results were VDR inh 3.5%.
COc1ccc(CNC(=O)C2CC(O)CN2C(=O)Nc2ccccc2)cc1 (centres undefined) was read as VDR inh -0.5%.
`CCOc1ccc(C2=C(C(C)=O)Sc3nnc(C)n3N2C(C)=O)cc1` gave VDR inh -5.3%.
For O=C(CSc1ccccc1C(=O)O)NCc1ccc(Cl)cc1 the results were VDR inh -2.1%.
For O=C(NNc1c2ccccc2nc2ccccc12)c1ccc(O)cc1 the results were VDR inh 15.6%.
`Cc1ccc(OCC(=O)OCc2cc(=O)n3nc(-c4cccs4)sc3n2)cc1C` gave VDR inh 24.4%.
CCOC(=O)C1=C(N)N(c2ccccc2)C(=O)C1 was read as VDR inh 25.1µM*.
For CCN1C=C(C(=O)OC)C(c2cccc(C)c2)C(C(=O)OC)=C1 the results were VDR inh 12.4%.
For CCOc1ccc(C(=O)NCCc2ccc3c(c2)OCCO3)cc1 the results were VDR inh 5.1%.
Screening CCCC(=O)NC(NC(=S)Nc1ccc(N=Nc2ccccc2)cc1)C(Cl)(Cl)Cl (centres undefined) returned VDR inh -1.8%.
For CCOc1ccc(NC(=O)c2ccccc2NC(=O)CNC2CCCC(C)C2C)cc1 (centres undefined) the results were VDR inh -7.9%.
O=C(Nc1cccc(C(F)(F)F)c1)C1CCN(S(=O)(=O)c2cnc[nH]2)CC1 was read as VDR inh -13.6%.
`COc1ccccc1C(=O)Nc1ccnn1C1CCN(CCC(C)c2ccc(C)o2)CC1` (centres undefined) gave VDR inh -7.1%.
COc1cc(C2c3c(oc4ccccc4c3=O)C(=O)N2Cc2ccco2)ccc1O (centres undefined) was read as VDR inh 11.9%.
COc1ccc(C)cc1NC(=O)C(OC(=O)c1ccc([N+](=O)[O-])o1)c1ccccc1 (centres undefined) was read as VDR inh -5.3%.
`Cc1ccc(OCCC(=O)OCC(=O)N2CC(=O)Nc3ccccc32)cc1` gave VDR inh -9.9%.
`COC(=O)CN1C(C(=O)c2ccccc2)=C(OC(=O)c2ccc(C)cc2)c2ccccc2S1(=O)=O` gave VDR inh 3.3%.
For COc1ccc(-c2nn(C)c(=O)c3ccccc23)cc1NC(=O)COc1ccccc1 the results were VDR inh -16.0%.
c1nnc2c3c4c(sc3ncn12)CCC4 was read as VDR inh 2.7%.
Screening CCOC(=O)c1[nH]cnc1C(=O)Nc1ccc(C)cc1 returned VDR inh -0.1%.
For CCOc1cccc(N(C(=O)C2COc3ccccc3O2)C(C(=O)NC2CCCCC2)c2ccc(O)cc2)c1 (centres undefined) the results were VDR inh 6.0%.
For O=C(c1ccc2ncsc2c1)N1CCCC(C(F)(F)F)C1 (centres undefined) the results were VDR inh -12.6%.
`O=C(CCCN=C1NS(=O)(=O)c2ccccc21)OCC(=O)c1ccc(Br)cc1` gave VDR inh 17.7%.
`CCn1c(=O)cc(OCC(=O)N(C)c2ccccc2F)c2ccccc21` gave VDR inh -7.7%.
`Cc1ccc([N+](=O)[O-])cc1S(=O)(=O)Nc1ccc(-c2ccc(N3CCCC3)nn2)cc1` gave VDR inh -21.5%.
`COC(=O)c1ccc(Cc2ccc(C(=O)OC)o2)o1` gave VDR inh 0.7%.
CC1CCN(S(=O)(=O)N2CCC(C(=O)NCCc3ccccc3)CC2)CC1 was read as VDR inh inconclusive.
Screening Cc1ccc2c(c1)c1ncnc(N3CCc4ccccc4C3)c1n2C returned VDR inh -3.7%.
For CN(Cc1nc2ccccc2s1)C(=O)c1ccc(F)cc1 the results were VDR inh 10.4%.
`O=C(CN1C(=O)C2C3C=CC(C3)C2C1=O)Nc1nc2ccccc2[nH]1` (centres undefined) gave VDR inh 6.2%.
O=C(O)COc1ccc(/C=N/NC(=O)c2cccc3ccccc23)cc1 was read as VDR inh -5.1%.
For CN(CC(=O)Nc1cccc(F)c1)C(=O)c1ccc(N2CCCC2)c([N+](=O)[O-])c1 the results were VDR inh 5.3%.
`O=C(CCCc1c[nH]c2ccccc12)Nc1ccc2ccccc2c1` gave VDR inh 3.0%.
For COc1ccc(S(=O)(=O)N(CC(=O)NCc2ccco2)c2ccccc2OC)cc1 the results were VDR inh -2.0%.
`CCC1CN(C(=O)NCc2ccc(C)cc2)c2ccccc2O1` (centres undefined) gave VDR inh 12.7%&1.0%.
For CCCCCCCC1CC(=O)C=C(C)C1C(=O)OCC (centres undefined) the results were VDR inh -0.5%.
For CCCn1c(N)c(C(=O)CSc2nnc(-c3cccnc3)n2-c2ccc(C)cc2C)c(=O)[nH]c1=O the results were VDR inh 14.0%.
For O=C(CCC(=O)N(CC(=O)NC1CCCCC1)c1ccc(F)cc1)Nc1nccs1 the results were VDR inh -0.2%.
CC1=Nn2c(nc(-c3ccccc3)c2-c2ccccc2)N(CC(N)=O)C(=O)C1 was read as VDR inh -2.3%.
`CCOC(=O)c1sc(N)c(C#N)c1CSc1nc2ccc(C)cc2[nH]1` gave VDR inh 9.3%.
For O=C(CCCC(=O)N(c1cccc(F)c1)C(C(=O)NC1CCCC1)c1ccc(O)cc1)Nc1ccccn1 (centres undefined) the results were VDR inh inconclusive.
CCOC(=O)Cc1nn(Cc2ccc(Cl)cc2)c(=O)c2ccccc12 was read as VDR inh -1.8%.
Screening COc1ccc(NC(=O)CCN2CCN(CCO)CC2)cc1 returned VDR inh 6.2%.
`Clc1ccc(C=NNc2ccccn2)c(Cl)c1` gave VDR inh -8.6%.
COC(=O)C1=C(O)/C(=C/c2ccc(OCC(=O)Nc3ccccc3)cc2)N=C1C was read as VDR inh 22.0%.
`CC(C)c1ccc(/C=C/C(=O)n2nnc3ccccc32)cc1` gave VDR inh inconclusive.
Screening C=CCn1ccc(=O)nc1SC returned VDR inh 16.7%.

Assay outcomes deposited in PubChem BioAssay by National Center for Advancing Translational Sciences (NCATS).

Only part of the results is shown (hit frequency here may not be typical).
